SARS PLpro yeast – blocks SARS-CoV papain-like protease in a yeast assay; S. cerevisiae expressing SARS-CoV PLpro, growth rescue; control for the full effect not named in the record; Potency, µM (titrated, usually from 32.9 µM), without a hit: at the highest dose activity, positive = growth rescue; 330,000 compounds, 0.19% hits; active means well fitted rising curve with a large enough effect; inconclusive means small, poorly fitted or top-dose-only effect; inactive means no such curve, though single readings can be large or run the other way; further: 0% is about no effect; nearly all actives have a fitted effect of over 55% in size; growth read by luminescence after 48 h
RE007 growth inh – less growth of the S. pombe RE007 Vpr strain; AID 651644; S. pombe RE007 Vpr strain, BacTiter-Glo ATP luminescence, 24 h; control for the full effect not named in the record; Potency, µM (titrated, usually from 92.2 µM), for inactives: at the highest dose activity change, negative = less growth; 360,000 compounds, 0.21% hits; active = well fitted falling curve with a large enough effect; inconclusive = small, poorly fitted or top-dose-only effect; inactive = no such curve, though single readings can be large or run the other way;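 further: on the % scale 0 is the no-effect control and ±100 the full control effect; nearly all actives have a fitted effect of over 50% in size; the assay follows cell death caused by Vpr and the record does not say whether a fall means rescue or toxicity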
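Fission yeast strain RE007, carrying one chromosomally integrated HIV-1 vpr copy, was seeded at OD 0.01 in PMG+AL medium with 23 nL pinned compound. After 24 h at 30 °C and 99% humidity, viability was read by BacTiter-Glo luminescence.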
2A StopGo – FMDV 2A StopGo reporter, luciferase signal. human cells with a luciferase reporter of 2A StopGo recoding; control for the full effect not named in the record. Potency, µM (titrated, usually from 57.9 µM), without a hit: at the top dose signal change, negative = less light. 410,000 compounds, 1.2% hits. AID 1159524; active = well fitted falling curve with a large enough effect; inconclusive = small, poorly fitted or top-dose-only effect; inactive = no such curve, though single readings can be large or run the other way; tested in HEK293T cells; further: on the % scale 0 is the no-effect control and ±100 the full control effect; nearly all actives have a fitted effect of over 45% in size; luciferase light after 4 h
An asterisk follows results filed as active; ? = inconclusive; [ ] = another dose, or the depositor's remark. Potency means the concentration at half of the fitted maximal effect. Not all compounds are listed (hit frequency here may not be typical).

SMILES	SARS PLpro yeast	RE007 growth inh	2A StopGo
CC(Sc1nc(N)cc(N)n1)C(=O)Nc1ccc(N2CCOCC2)cc1 (stereo not drawn)	-7%	-7%	6%
O=C(COc1cccc(C(F)(F)F)c1)NNC(=O)c1ccc(=O)[nH]c1	2%	11%	-12%
Cn1c(C=O)c(C#CC(C)(C)O)c2ccccc21	0%	1%	7%
CCN(C[C@H]1N[C@@](CC)(C(=O)OC)[C@H]2C(=O)N(C)C(=O)[C@@H]12)C(=O)c1ccccc1	0%	-18%	-10%
CC(C(=O)N1CCCC1)N1CCN(S(=O)(=O)c2ccccc2)CC1 (stereo not drawn)	1%	0%	-2%
CCCN=C1N(CC)C[C@@H]2[C@@H]3C(=O)N(C)C(=O)[C@@H]3[C@](CC)(C(=O)OC)N12	18%	6%	-6%
CCCNC(=O)C(Cc1cccc(Cl)c1)NC(=O)c1ccc(C#N)cc1 (stereo not drawn)	4%	4%	6%
O=C(NNC(=O)c1ccc(Cl)nc1)c1ccncc1	-3%	-10%	-25%
CCn1c(SCC(=O)NC2CC2)nnc1-c1cccs1	1%	19%	-5%
CCCN(CC(=O)Nc1cc(Cl)ccc1Cl)C(=O)/C=C/c1cc(OC)ccc1OC	-8%	-9%	-22%
CC(C)(C)C(=O)Nc1ccc(C(=O)CSc2nnc(C3CC3)n2C2CC2)cc1	1%	-11%	0%
O=C(/C=C/c1ccc(F)cc1)OCC(=O)c1ccc[nH]1	9%	14%	31%[activator]
O=C(NCCOC(=O)c1ccccc1)c1ccccc1	-3%	6%	12%
COc1ccc(-c2c(C#Cc3ccsc3)c3cc(-c4ccc(OC)c(F)c4)ccc3n2C)cc1	-4%	-5%	-5%
COC(=O)[C@@]12CCCN1[C@H](c1ccc(-c3ccc(Cl)c(Cl)c3)c(OC)c1)[C@H]1C(=O)N(C)C(=O)[C@H]12	-5%	8%	?
O=C(COc1ccc(Br)cc1)NCCCN1CCCC1=O	1%	-10%	-3%
CN(C(=O)c1ccc(NC(=O)Cc2cccc(NC(=O)C3CCCN(C(=O)CCc4ccccc4)C3)c2)cc1)C1CCCC1 (stereo not drawn)	-2%	-9%	0%
COc1cccc(NC(=O)C2CCC2)c1	1%	-2%	11%
CCCNC(=O)c1ccc(N2CCC3(CC2)CC(c2cccc(Br)c2)=NO3)c(NC(=O)c2ccc(Br)cc2)c1	0%	17%	-7%
O=C(CNC(=O)c1ccccc1Cl)Nc1ccncc1	-9%	-2%	-14%
CC(=O)Cc1nsc(NC(=O)c2ccc(-c3cccc(Cl)c3)o2)n1	0%	2%	18%
CCN(C(=O)COC(=O)c1cc(C)oc1C)c1c(N)n(Cc2ccccc2)c(=O)[nH]c1=O	-2%	2%	-27%
COc1ccc(C(CNC(=O)c2[nH]c(C)c(C(C)=O)c2C)N2CCOCC2)cc1 (stereo not drawn)	12%	15%	-8%
COc1ccc2c(c1)[C@H]1[C@H](CO2)[C@H](c2ccccc2)[C@]2(C)C(=O)N[C@H](C)C(=O)N12	-4%	6%	-8%
COC(=O)[C@@]12CCCN1[C@H](c1ccc(-c3ccc(OC)cc3)c(OC)c1)[C@H]1C(=O)N(C)C(=O)[C@H]12	-1%	-5%	-20%
O=C(O)c1ccc(N=Cc2nc(-c3ccco3)oc2O)cc1	2%	6%	-20%
COC(=O)[C@]1(Cc2ccccc2)N[C@H](CN(C)C(=O)Nc2ccc(F)cc2)[C@@H]2C(=O)N(C)C(=O)[C@@H]21	-11%	2%	-18%
Cc1ccc(NC(=O)C2CCN(S(=O)(=O)c3cc([N+](=O)[O-])ccc3Cl)CC2)nc1	0%	-11%	?
CCOc1ncccc1C(=O)Nc1cc(S(=O)(=O)N(CC)CC)ccc1N1CCOCC1	-3%	-17%	?
Cc1cc(NC(=O)CSCC(=O)Nc2nc3ccccc3s2)no1	-9%	8%	20%
CC(C)(C)OC(=O)C[C@@H]1C/C=C\C[C@@H](CC(=O)NCCO)C(=O)NC[C@@H](c2ccccc2)OC1=O	2%	-7%	0%
CCCCN(C(=O)C(C)N1C(=O)c2ccccc2C1=O)c1c(N)n(CCCC)c(=O)[nH]c1=O (stereo not drawn)	-24%	2%	-18%
COC(=O)C1=C(c2c(C)noc2C)C[C@@H]2CC[C@H]1N2C(=O)NCCOc1ccccc1Cl	-7%	-2%	-4%
COC(=O)C1=C(c2cccc(OCc3ccccc3)c2)C[C@@H]2CC[C@H]1N2C(=O)NCc1ccc(Cl)cc1	-1%	5%	-3%
Cc1[nH]c2ccccc2c1C=NNC(=O)c1cc(-c2cccnc2)nc2ccccc12	1%	-4%	-29%
CCOCCCNC(=O)NC(=O)CN1CCN(S(=O)(=O)c2ccc3c(c2)OCCO3)CC1	2%	27%	-19%
CC(C)CN(C(=O)CN1CCC(C)CC1)c1c(N)n(CC(C)C)c(=O)[nH]c1=O	6%	3%	-9%
CCOc1ccccc1Nc1nnc(SCC(=O)NC2CC2)s1	-1%	-5%	6%
CCn1c(SCC(=O)c2c(N)n(C3CC3)c(=O)[nH]c2=O)nc2cc(S(N)(=O)=O)ccc21	2%	-3%	38%[activator]
C=C[C@]1(C)C=C2CCC3[C@](C)(CCC[C@@]3(C)C(=O)O)C2CC1 (stereo partly drawn)	3%	-27%	-18%
O=C(COC(=O)/C=C/c1ccccc1)NCc1ccc2c(c1)OCO2	-2%	-2%	-18%
Cc1cnc(C(=O)OCC(=O)Nc2cccc3ccccc23)cn1	1%	-9%	0%
Cc1ccc(-c2csc3nc4c5ccccc5c(NCCCN(C)C)nn4c(=O)c23)cc1	-2%	-2%	-30%
CCCN(CC(=O)Nc1ccc(F)c(F)c1F)C(=O)c1ccc(N2CCCC2=O)cc1	-11%	-8%	-17%
Cc1ccc(S(=O)(=O)N(C)C[C@@H]2Oc3ccc(NC(=O)Cn4cnnn4)cc3C(=O)N([C@@H](C)CO)C[C@H]2C)cc1	11%	-14%	-9%
O=C(N[C@H]1C/C=C\C[C@@H](CC(=O)N(CCO)Cc2ccccc2)C(=O)N2CCC[C@@H]2COC1=O)OCC1c2ccccc2-c2ccccc21	3%	3%	-16%
C[C@@H](NC(=O)c1[nH]cnc1C(=O)Nc1nccs1)c1ccccc1	2%	17%	-15%
COc1ccc(C(C)(C)C)cc1NC(=O)C1=CC=CN2CCS(=O)(=O)N=C12	2%	-12%	-1%
COc1ccc(OCCC(=O)OCC(=O)c2ccc[nH]2)cc1	-6%	-8%	-13%
O=C(COc1ccccc1)N[C@@H]1c2ccccc2CC[C@@H]1O	15%	-8%	0%
O=C(Nc1cccc(F)c1)C1CCCN(C(=O)c2ccc(Cl)cc2)C1 (stereo not drawn)	3%[6.58 µM]	1%	-25%
O=C1CN(C(=O)COC(=O)c2ccc(Br)o2)c2ccccc2N1	6%	18%	-3%
C[C@H]1O[C@@H](O[C@H]2CC[C@@]3(C)C(CC[C@]4(C)C3C=C[C@]35OC[C@@]6(CCC(C)(C)C[C@H]63)[C@@H](O)C[C@]54C)[C@]2(C)CO)[C@H](O)[C@@H](O[C@@H]2O[C@H](CO)[C@@H](O)[C@H](O)[C@H]2O)[C@H]1O (stereo partly drawn)	3%	34%	-17%
CC1CN(C(=O)c2ccc(Br)c(S(=O)(=O)N3CCOCC3)c2)CC(C)O1 (stereo not drawn)	-3%	18%	-4%
CCCC(=O)Nc1ccc(C(=O)COC(=O)C2CC2)cc1	0%	-6%	49%[activator]
CN(C)CCCN(C(=O)c1ccco1)c1nc2ccc(F)cc2s1	0%	18%	-7%
C[C@H](CO)N1C[C@H](C)[C@@H](CN(C)Cc2ccncc2)Oc2c(NC(=O)C3CC3)cccc2C1=O	1%	-12%	23%
COc1cc2sc(-c3ccccc3OC)c(-c3ccc(OCCN4CCCCC4)cc3)c2cc1OC	-2%	6%	?
O=C(NNC(=S)NCc1ccccc1)c1ccc(Br)o1	1%	22%	18%
C[C@H](CO)N1C[C@H](C)[C@@H](CN(C)S(=O)(=O)c2cccs2)Oc2ccc(NC(=O)Nc3ccc(C(F)(F)F)cc3)cc2C1=O	-25%	0%	-16%
Other records follow:
SMILES	SARS PLpro yeast	RE007 growth inh	2A StopGo
CCOc1ccc(C(=O)NCC(=O)OCCN2C(=O)c3ccccc3C2=O)cc1OCC	0%	3%	-5%
CC1CC(C)CN(C(=O)COC(=O)c2cncc(Br)c2)C1 (stereo not drawn)	0%	9%	-15%
CC1CCCC(NC(=O)CN(C)S(=O)(=O)c2cnc[nH]2)C1C (stereo not drawn)	1%	0%	-12%
Cc1cccc(CCN=c2c([N+](=O)[O-])nn(-c3ccccc3)n2O)c1	-11%	9%	-17%
Clc1ccc(-n2cccc2)cn1	0%	0%	0%
COc1ccc(CCC(=O)Nc2c(C)n(C)n(-c3ccccc3)c2=O)cc1	2%	2%	-12%
O=C1CNC(=S)N1CCCn1ccnc1	0%	-3%	-4%
Cc1cc(C)cc(NC(=O)Cn2nnc3ccccc3c2=O)c1	1%	-2%	-7%
CC[C@]12c3[nH]c4ccc(Cl)cc4c3CCN1C(=O)[C@@H](CC(=O)NCCN1CCOCC1)C[C@@H]2C(=O)N1CCN(C(=O)C2CC2)CC1	17%	-19%	-15%
CC1(C)CC[C@]2(C(=O)O[C@@H]3OC(CO)[C@@H](O)[C@H](O)[C@H]3O)CC[C@]3(C)C(=CCC4[C@@]5(C)CC[C@H](O[C@@H]6OC(C(=O)O)[C@@H](O)[C@H](O)[C@H]6O)C(C)(C)C5CC[C@]43C)[C@@H]2C1 (stereo partly drawn)	3%	?	-27%
Cc1ccc(S(=O)(=O)N2CCOCC2)cc1NC(=O)CSc1nnc(NC2CC2)s1	0%	1%	15%
O=C(COC(=O)c1ccc(CN2CCCC2=O)cc1)Nc1ccc(F)cc1	-3%	15%	4%
CCOc1ccc(C(=O)NCC(=O)Nc2ccncc2)cc1OCC	-1%	2%	-7%
COc1cc(/C=C/C(=O)Nc2ccc3nc4n(c(=O)c3c2)CCCC4)cc(OC)c1OC	-3%	-5%	?
CC[C@]1(C(=O)OC)[C@H]2C(=O)N(C)C(=O)[C@H]2[C@H]2CN=C(SCc3ccc(C(=O)OC)cc3)N21	4%	-1%	-9%
O=C1COc2ccc(C(=O)COC(=O)c3c(F)cccc3Cl)cc2N1	3%	3%	-5%
COc1cc(OC)c(NC(=O)c2ccccc2F)cc1Cl	0%	0%	36%[activator]
CC(C)N(C(=O)[C@H]1C[C@H](CC(=O)NC(C)(C)C)C(=O)N2CCc3c([nH]c4cc(-c5ccco5)ccc34)[C@]12C)C(C)C	-14%	-4%	?
CCCCCOc1ccc(C(=O)Nc2ccc(N3CCOCC3)cc2N2CCOCC2)cc1	-8%	21%	31%[activator]
CC1(C)CC(NC(=O)c2cc(S(=O)(=O)N3CCOCC3)ccc2Cl)CC(C)(C)N1	4%	-7%	-19%
CCOc1ccccc1C(=O)OCC(=O)Nc1cc(S(=O)(=O)N2CCOCC2)ccc1C	2%	-6%	-25%
NS(=O)(=O)c1ccc(NC(=O)COC(=O)CCc2c[nH]c3ccccc23)cc1	2%	1%	-2%
Cc1cc(C)n(CCC(=O)Nc2cccc(F)c2)n1	0%	8%	-22%
CC(NC(=O)C1CCN(C(=O)c2cccs2)CC1)c1ccc(S(N)(=O)=O)cc1 (stereo not drawn)	-4%	8%	-20%
COc1ccc(-c2cccc(-c3nc4ccc(Cl)cn4c3NC3CCCCC3)c2)cc1	2%	-5%	-15%
Cc1cnc(NC(=O)C(C)N2CCN(C)CC2)s1 (stereo not drawn)	0%	3%	17%
CC1CC(C)CN(C(=O)c2cc(S(=O)(=O)N3CCCCC3)ccc2Cl)C1 (stereo not drawn)	-1%	-9%	-1%
O=C(COc1ccc(Cl)c2cccnc12)N1CCOCC1	-3%	5%	-5%
COc1cccc(NC(=O)CSc2cccc[n+]2[O-])c1	-2%	-11%	17%
O=C(CCNC(=O)c1ccc(Cl)cc1)NC1CCCc2ccccc21 (stereo not drawn)	-7%	10%	-2%

A different layout for some results above.
Order of values: SARS PLpro yeast	RE007 growth inh	2A StopGo
- CCOc1ccccc1C(=O)OCC(=O)Nc1cc(S(=O)(=O)N2CCOCC2)ccc1C
 : 2%	-6%	-25%
- NS(=O)(=O)c1ccc(NC(=O)COC(=O)CCc2c[nH]c3ccccc23)cc1
 : 2%	1%	-2%
- Cc1cc(C)n(CCC(=O)Nc2cccc(F)c2)n1
 : 0%	8%	-22%
- CC(NC(=O)C1CCN(C(=O)c2cccs2)CC1)c1ccc(S(N)(=O)=O)cc1 (stereo not drawn)
 : -4%	8%	-20%
- COc1ccc(-c2cccc(-c3nc4ccc(Cl)cn4c3NC3CCCCC3)c2)cc1
 : 2%	-5%	-15%
- Cc1cnc(NC(=O)C(C)N2CCN(C)CC2)s1 (stereo not drawn)
 : 0%	3%	17%
- CC1CC(C)CN(C(=O)c2cc(S(=O)(=O)N3CCCCC3)ccc2Cl)C1 (stereo not drawn)
 : -1%	-9%	-1%

Screens from PubChem BioAssay.
